Vaccinia Venus: qHTS for Stage-Specific Inhibitors of Vaccinia Orthopoxvirus: Venus Reporter Primary qHTS. Vaccinia virus Venus reporter expression, fluorescence. Potency, µM (series often up to 36.5 µM), without a hit: top-dose activity change, negative = inhibition, usual class: inhibitors. 330,000 compounds, 0.46% hits; active means well fitted inhibition curve with a large enough effect; inconclusive means small, poorly fitted or top-dose-only effect; inactive means no such curve, though single readings can be large or run the other way; tested in A549 cells; also: nearly all actives have a fitted effect of over 30% in size; inactives centre near -10
Vaccinia mCherry: qHTS for Stage-Specific Inhibitors of Vaccinia Orthopoxvirus: mCherry Reporter Primary qHTS | Vaccinia virus mCherry reporter infection, fluorescence; about a quarter of the inactives have no number | Potency, µM (doses to about 36.5 µM), inactives show at the top dose activity change, negative = inhibition, hits mostly inhibitors | 310,000 compounds, 0.63% hits; active = well fitted inhibition curve with a large enough effect; inconclusive = small, poorly fitted or top-dose-only effect; inactive = no such curve, though single readings can be large or run the other way; tested in A549 cells; also: nearly all actives have a fitted effect of over 35% in size; inactives centre near -10
* = called active by the depositor; i = inactive; ? = inconclusive; / = not tested or not shown; & = joins results of further samples; [ ] = remark or other dose. % is scaled to controls: 0 for no effect and ±100 for the full control effect; potency is read from the fitted curve at half-maximal effect.

SMILES,Vaccinia Venus,Vaccinia mCherry
CC(=O)c1ccc(N2CCN(S(=O)(=O)c3ccc4c(c3)CC(=O)N4)CC2)cc1,1%,15%
CC1CCCN(CCCNC(=O)CN2C(=O)CSc3ccc(S(=O)(=O)N4CCOCC4)cc32)C1 (configuration not stated),-19%[7.34 µM],-2%[7.34 µM]
C=C[C@](C)(O)CCC=C(C)C,28%,25%
O=C(COc1ccc(S(=O)(=O)N2CCCC2)cc1Cl)N1CCN(c2ccccc2)CC1,-21%,-3%
Cc1cc(/N=C/C=C2\N(C)c3ccccc3C2(C)C)n(CCC#N)n1,?,-24%
CCOC(=O)c1ccc([N+](=O)[O-])cc1NC(C)=O,3%,-7%
Cc1ccc(N2C(=O)CSC23C(=O)N(CC(=O)NC2CCCCC2)c2ccccc23)cc1 (configuration not stated),-6%,-13%
COc1cc2c(cc1OC)C(c1ccsc1)CC(=O)N2 (configuration not stated),-8%,/
CCc1ccccc1N(CC(=O)N1CCCCC1)S(=O)(=O)c1ccccc1,5%,-16%
NC(=O)CC1Nc2cccc3cccc(c23)NC1=O (configuration not stated),-9%,-19%

(continued)
SMILES,Vaccinia Venus,Vaccinia mCherry
O=C1NCCc2c1[nH]c1ccc([N+](=O)[O-])cc21,-20%,-24%
Cc1ccc(S(=O)(=O)N(C)c2ccc(C(=O)NCC(c3cccs3)N3CCOCC3)cc2)cc1 (configuration not stated),-5%,-1%
CSc1nc(N)nc(SCC(=O)Nc2ccc(Cl)cc2)c1C#N,?,?
S=C(Nc1ccccc1)Nc1ccccc1Br,1%,-2%
COc1cccc(NC(=S)NNC(=O)CCn2cc([N+](=O)[O-])cn2)c1,-12%,-1%
Cc1c(C(=O)OCC(=O)Nc2ccc(S(N)(=O)=O)cc2)oc2c1ccc1ccccc12,?,-28%
CC(C)CCNC(=O)CN1C(=O)CSc2ccc(S(=O)(=O)N3CCCCC3)cc21,-15%,-14%
O=C(CSc1ccc(-c2ccccn2)nn1)Nc1cccc(F)c1,?,?
Cc1cccc(C)c1NC(=O)NC1(C(=O)NCC2CCCO2)CCCCC1 (configuration not stated),-10%,i
CC1(C(=O)NS(=O)(=O)c2cccc(Cl)c2)CCN1C(=O)Cc1ccc(-c2ccccc2)cc1 (configuration not stated),-4%,0%

Later entries
SMILES,Vaccinia Venus,Vaccinia mCherry
O=C(CCS(=O)(=O)c1cc(Br)cc2c1N(C(=O)C1CC1)CC2)NCc1ccccc1Cl,-5%,-8%
O=C(COc1ccccc1)Nc1nnc(S(=O)(=O)Nc2ccccc2)s1,-9%&-8%,-5%
COc1ccc(/C=C/C(=O)NCC(=O)N/N=C/c2cc(Br)ccc2OC)cc1,-16%,-7%
O=C(NC1CC2CCCC(C1)N2C(=S)Nc1ccccc1Cl)C1CC1 (configuration not stated),4%,1%
CCOC(=O)CCCCCC(=O)Nc1ccc2c(c1)CC(=O)N([C@@H](C)CO)C[C@H](C)[C@@H](CN(C)Cc1ccccc1)O2,-10%,-3%
CCc1cccc(C)c1NC(=O)C1CCCN(S(C)(=O)=O)C1 (configuration not stated),5%,i
CCc1nc2sc3c(c2c(=O)o1)CCCC3,-15%,i
OCCN1C2CCC1CC(O)(c1ccc(F)cc1)C2 (configuration not stated),9%,0%
CC(NS(=O)(=O)c1ccc(Cl)cc1)C(=O)OCC(=O)Nc1ccc(N(C)C)cc1 (configuration not stated),-6%,-6%
CC1(C)CC2(C)CC(=O)C1C(C(=O)O)C2C(=O)O (configuration not stated),4%,i

Among those listed so far, these contain fluorine:
SMILES,Vaccinia Venus,Vaccinia mCherry
O=C(CSc1ccc(-c2ccccn2)nn1)Nc1cccc(F)c1,?,?
OCCN1C2CCC1CC(O)(c1ccc(F)cc1)C2 (configuration not stated),9%,0%

More records
SMILES,Vaccinia Venus,Vaccinia mCherry
COc1ccc(CN2CC(=O)N(c3ccc(C)cc3C)C2=S)cc1OC,0%,i
CC(C)c1nc2oc3c(NCc4ccccn4)ncnc3c2c2c1COC(C)(C)C2,-5%,-9%
COc1ccc(CCNC(=O)CSc2cc(=O)[nH]c(N)n2)cc1OC,-25%,/
Cc1nnc(SCC(=O)NNC(=O)COc2ccc(Cl)cc2)s1,9%,-14%
CC(=O)Nc1nc(C2CC2)cc(-c2ccccc2)c1C#N,-1%,i
CC(C)Sc1snnc1-c1ccccc1,-12%,-5%
CCOC(=O)C1CCN(S(=O)(=O)c2cc(-c3onc(C)c3C)ccc2OC)CC1,-10%,-11%
Cc1ccccc1OP(N)(=O)Oc1ccccc1C,-7%,-17%
N#Cc1ccc(C(=O)CN2CCN(c3ccccc3)CC2)cc1,-1%,-11%
CCOc1ccc(-c2nnc(Nc3ccc(S(N)(=O)=O)cc3)c3ccccc23)cc1,-2%,-14%

More results follow:
SMILES,Vaccinia Venus,Vaccinia mCherry
Cc1ccc(S(=O)(=O)CCSc2n[nH]c(=O)n2-c2ccccc2)cc1,2µM*,2µM*
Cc1c(NC(=O)/C=C/C(=O)O)cccc1[N+](=O)[O-],-3%,-5%
O=C(O)Cc1ccc(NC(=S)Nc2cccc(Cl)c2Cl)cc1,-16%,-2%
CCOC(=O)COc1nc(C)c(Br)c(OC)n1,-3%,-16%
CS(=O)(=O)N(CC(=O)N1CCCCC1)Cc1ccccc1,-12%,-24%
COc1cccc(NC(=O)c2sc3nc4n(c(=O)c3c2C)CCC4)c1,-2%[7.34 µM],-8%[7.34 µM]
COc1ccc(NC(=O)Nc2ccc(C(=O)N3CCOCC3)cc2)cc1OC,-8%,i
CCN(CC)CCC(c1cc(OC)c(OC)c(OC)c1)c1c(OC)cc(OC)c2c(-c3ccccc3)cc(=O)oc12 (configuration not stated),?,-4%
Cc1cc2cc(CN(Cc3ccc4c(c3)OCO4)C(=O)c3ccco3)c(=O)[nH]c2cc1C,-14%,/
CN(N)c1ccc2c(C(F)(F)F)cc(C(F)(F)F)nc2n1,-5%,-54%

Continuation:
SMILES,Vaccinia Venus,Vaccinia mCherry
CCCNc1nc(C)cc(-c2cc(-c3ccc(Cl)cc3)on2)n1,?,i
COc1ccc(S(=O)(=O)Nc2ccc3c(c2)C(=O)N([C@@H](C)CO)C[C@H](C)[C@H](CN(C)S(=O)(=O)c2ccc(F)cc2)O3)cc1,-29%,?
CCOC(=O)[C@]12CCCC=C1N(Cc1cccc3ccccc13)C(=O)[C@H](CC(=O)N1CCC(c3ccccc3)CC1)C2,-15%,2%
CC1(c2ccc3ccccc3c2)CCC(=O)O1 (configuration not stated),-7%,i
COc1ccc(Cl)cc1S(=O)(=O)N1CCN=C1c1ccccc1,-16%,-18%
CCCN(CCC)c1nc(N)c(C#N)c(CC#N)c1C#N,-5%,i
COC(=O)c1sccc1N/N=C/c1cccc(Oc2ccccc2)c1,-4%,-4%
O=C(NCCN1Cc2ccccc2OC(c2ccccc2F)C1)c1cncs1 (configuration not stated),2%,-17%
CC1(C)Cc2cccc(OCC(=O)N3CCN(S(=O)(=O)c4ccccc4)CC3)c2O1,-16%,-16%
C=C1CCN([C@@H](Cc2ccccc2)C(=O)NCc2ccc(Cl)c(Cl)c2)S(=O)(=O)c2ccccc21,-29%,-4%

Entries of single compounds as entered above:
CC1(C(=O)NS(=O)(=O)c2cccc(Cl)c2)CCN1C(=O)Cc1ccc(-c2ccccc2)cc1 (configuration not stated) is listed as Vaccinia Venus = -4%; Vaccinia mCherry = 0%
COc1ccc(S(=O)(=O)Nc2ccc3c(c2)C(=O)N([C@@H](C)CO)C[C@H](C)[C@H](CN(C)S(=O)(=O)c2ccc(F)cc2)O3)cc1 is listed as Vaccinia Venus = -29%; Vaccinia mCherry = ?

Remaining list, next part
SMILES,Vaccinia Venus,Vaccinia mCherry
N#CC1=C(N)NC(SCC(=O)c2ccc(Cl)cc2)=C(C#N)C12CCCC2,-16%,-1%
Cc1ccc2nc(SCC(=O)NC3CCCC3)nc(=O)n2c1,-11%,-3%
O=C1NN(CCO)C(=S)Nc2ccccc21,-9%,-4%
COc1cc(Cl)c(C)cc1NC(=O)c1nn(-c2ccc(C)cc2)c(=O)n(C)c1=O,-20%,-13%
Cc1c(Cl)cccc1NC(=O)C1CCN(c2ncnc3c2nc2n3CCCCC2)CC1,-15%,i
CCOc1ccc(C2c3c(oc4ccccc4c3=O)C(=O)N2CCCN2CCOCC2)cc1 (configuration not stated),-9%,/
CCN(C[C@H]1N[C@@](Cc2ccccc2)(C(=O)OC)[C@H]2C(=O)N(Cc3ccccc3)C(=O)[C@@H]12)S(=O)(=O)c1ccccc1,-18%,i
COCCN1C(=O)C(=O)/C(=C(/O)c2ccc(OC(C)C)cc2)C1c1cccnc1 (configuration not stated),-3%,i
Cc1ccc(S(=O)(=O)Cc2ccc(C(=O)N3CCN(c4cccc(C)c4C)CC3)o2)cc1,?,-1%&-18%
CN(C)CCNc1nc2sc3c(c2c(=O)n1Cc1ccccc1)CCCCC3,-9%,-9%

Another view of some results above:
COc1cc(Cl)c(C)cc1NC(=O)c1nn(-c2ccc(C)cc2)c(=O)n(C)c1=O
- Vaccinia Venus: -20%
- Vaccinia mCherry: -13%
Cc1c(Cl)cccc1NC(=O)C1CCN(c2ncnc3c2nc2n3CCCCC2)CC1
- Vaccinia Venus: -15%
- Vaccinia mCherry: i

Going on with the list.
SMILES,Vaccinia Venus,Vaccinia mCherry
COc1ccccc1C1CC(=O)NC(C)=C1C(=O)OCC1CCCO1 (configuration not stated),-10%,/
CCn1cc(CCC(=O)NCc2ccc(C)cc2)c2ccccc21,-16%,-15%
CCCSc1nc2sc3c(c2c(=O)n1-c1cccc(Br)c1)CC(C)(C)OC3,2%,-1%
COc1ccc(CCN(C)C(=O)CSc2nnnn2C)cc1OC,-3%,i
CCCn1nc(C(=O)OCC(=O)Nc2cccc(OC)c2)c2ccccc2c1=O,-1%,i
COc1ccc(-c2oc(NC(=O)CSc3nncn3C)c(C#N)c2-c2ccc(OC)cc2)cc1,?,?
Cc1ccccc1NS(=O)(=O)c1ccc(Cl)cc1,-11%,?
Cc1cc(C)c(OCCOCCN2CCCC2)c(C)c1,-2%,-9%
CSCCC(NC(N)=O)C(=O)Nc1ccc(F)c(Cl)c1 (configuration not stated),-3%,i
CC(C)(C)NC(=O)CN(C(=O)C(=O)Nc1ccc2c(c1)OCCO2)C1CC1,8%,-15%

Further entries follow.
SMILES | Vaccinia Venus | Vaccinia mCherry
Cc1cccc(CCNC(=O)c2nn(C)c3c2CSc2ccccc2-3)c1 | -3% | -10%
CC(=O)NCCNC(=O)CCNC(=O)c1ccc(Cl)cc1 | -10% | i
COc1ccccc1OCCNC(=O)C1CC(=O)N(Cc2ccc(C)cc2)C1 (configuration not stated) | -17% | -10%
Cc1ccc(S(=O)(=O)CCC(=O)Nc2nnc(-c3ccco3)o2)cc1 | ? | ?
Cc1nnc(SCc2cccc(Oc3ccccc3)c2)n1N | -10% | -2%
CN(C)S(=O)(=O)c1ccc(C(=O)Nc2cccnc2)cc1 | -26% | /
O=C(NCCCN1CCN(c2ccccc2F)CC1)c1ccc2nc(N3CCCCC3)sc2c1 | -23% | -8%
O=C1c2ccccc2C2N1CCCN2C(=O)c1sc2ccccc2c1Cl (configuration not stated) | -26% | ?
NC(=S)NC(c1ccccc1)c1ccncc1 (configuration not stated) | -7% | i
O=C(Nc1nnc(-c2cccc(F)c2)s1)Nc1ccccc1F | -20% | -4%
NNc1ccc(Cl)nn1 | 1% | -21%
CC(C)CN(C(=O)CCC(=O)OC(C)C(=O)Nc1cccc(C#N)c1)c1c(N)n(CC(C)C)c(=O)[nH]c1=O (configuration not stated) | 2% | -8%
CCOC(=O)N1CCC(NC(=O)C2CCCCN2S(=O)(=O)c2ccc(F)cc2)CC1 (configuration not stated) | -8% | -15%
C/C(=N\NC(=O)c1c(Br)c(C)nn1C)c1ccc(NC(=O)c2ccoc2C)cc1 | -20% | -27%
CC(CCO)Nc1nc2c(c(=O)n(C)c(=O)n2C)n1Cc1ccc(Br)cc1 (configuration not stated) | -8% | -9%

Next section.
SMILES | Vaccinia Venus | Vaccinia mCherry
COc1ccc(OC)c(CNC(=O)Nc2cn(CC(C)C)c(=O)c3ccccc23)c1 | 5% | 4%
Brc1ccc(OCCOCCN2CCOCC2)cc1 | -2% | i
O=C(CCn1nnc2ccccc21)N1CCC(O)(c2cccc(F)c2)CC1 | -8% | -16%
Cc1noc(C)c1NC(=O)Nc1ccc2c(c1)C(=O)N([C@H](C)CO)C[C@H](C)[C@@H](CN(C)S(C)(=O)=O)O2 | -7% | i
CCC1=Nc2cc(C(=O)NC3CCCC3)ccc2Sc2ccc(Cl)cc21 | ? | ?
Cc1cc(NC(=O)CSc2nc3sc(C)c(C)c3c(=O)n2C2CCCC2)no1 | -1% | -12%
COc1cccc(-c2n[nH]c(=S)n2Cc2ccco2)c1OC | -10% | -20%
COc1ccc(CCNC(=O)C2CCCN(S(=O)(=O)c3ccc(F)cc3)C2)cc1 (configuration not stated) | -7% | -16%
Cc1ccc(S(=O)(=O)N2CCOCC2)cc1C(=O)Nc1ccccn1 | ? | /
CNc1nc(N)c([N+](=O)[O-])c(Nc2ccccc2OC)n1 | ? | ?
COC(=O)c1[nH]c2ccccc2c1NC(=O)/C=C/c1ccc2c(c1)OCO2 | -7% | -7%
CCn1cc(C(=O)NCc2ccncc2)c(=O)c2cc(F)c(N3CCN(C(=O)c4ccco4)CC3)cc21 | -9%[7.34 µM] | -12%[7.34 µM]
O=C(NNC(=O)c1cccs1)c1ccc(Cl)c(Cl)c1 | -20% | -1%
O=C(/C=C/c1ccc(Cl)cc1)N(Cc1ccccc1)c1ccccn1 | -12% | -7%
Cc1ccc(C)c(N(CC(=O)Nc2cc(Cl)ccc2Oc2ccccc2)S(C)(=O)=O)c1 | ? | /

Rows were taken by chance; 0.82% or so of the library scored in one or more.
